Screening results deposited in PubChem by several laboratories.
Bead autofluor – compound fluorescence in toxin protease inhibitor counterscreen; compound autofluorescence counterscreen, microsphere flow cytometry; hits give high values; fluorescence intensity (test concentration not listed); 360,000 tested, 3.1% active; AID 624483;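 active = at least 3 SD above the mean of all compounds, about 16000 in these data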;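 note: 100 nL of 1 mM stock went into each well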
ugtP null kill – growth inhibition of ugtP-null S. aureus, primary screen, RN4220 ugtP deletion, OD600; growth inhibition, % (concentration not given with the values); 16 h; some inactives read as strong as hits; 330,000 tested, 0.54% active;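 active = z-score under -3 and OD600 up to 0.15 on both plates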;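 note: plate controls were untreated wells for no effect and antibiotic for full effect; wells of about 80 µL received 100 nL stock; the first replicate is given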
BJeLR viability – MLPCN primary cell-based screen for lethality selective to Ras in HRASV12 cells; AID 1554, 2009; BJeLR (HRASV12) viability, CellTiter-Glo ATP luminescence, 48 h; reference of the scale not given here; 300,000 tested, 0.17% active; inhibition, % (concentration not given with the values);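 active = replicate mean above 50%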;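 note: 50 nL library stock added to about 25 µL; numbers are from one replicate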
Sa RN4220 lethal – growth inhibition of S. aureus RN4220, primary screen, OD600; 16 h; inhibition, % (concentration not given with the values); 330,000 tested, 0.33% active;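 active = z-score of -3 or lower and OD600 up to 0.18 on both plates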;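 note: plate controls were untreated cells for no effect and reference antibiotic for full effect; stock transfer was 100 nL into about 80 µL; one replicate is shown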
PrP UTR inh – inhibition of PrP 5' UTR reporter expression | inhibition, % (concentration not given with the values) | cell-based PrP 5' UTR mRNA reporter, plate reader | 340,000 tested, 0.35% active | AID 488862, 2010;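 active = every replicate at 50% or more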;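 note: 0 = median of the neutral control wells; tested in H4 reporter cells; numbers are from one replicate; inactives centre near -14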
Mtb hypoxia rep – PubChem AID 1159583. M. tuberculosis hypoxia-regulated fluorescent reporter, fluorescence. fluorescence inhibition, % (test concentration not listed). 300,000 tested, 0.1% active;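 active = 35 to 45% if threefold the growth effect, above 45% if 1.5-fold the growth effect; inactive = the rest, general growth blockers included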;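 note: wells of about 50 µL received 100 nL stock; 0% = vehicle wells and 100% = reference inhibitor wells; whole bacteria with a GFP reporter of the hypoxia response; strong numbers were not always called active; many hits fall short of the cut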
Mtb hypoxia rep growth – also measured in Mtb hypoxia rep; calls as there; growth inhibition, %; measured here: M. tuberculosis growth (absorbance);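 0% = vehicle and 100% = reference antibiotic; read after six days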
The depositor's hits bear a star; / = not tested or not shown.

Preview (two entries):
SMILES | Bead autofluor | ugtP null kill | BJeLR viability | Sa RN4220 lethal | PrP UTR inh | Mtb hypoxia rep | Mtb hypoxia rep growth
CCOC(=O)C1=C(O)C(=O)N(c2ccc(S(N)(=O)=O)cc2)C1c1cccc([N+](=O)[O-])c1 (stereo unspecified) | 4802 | 7 | -7 | 3.2 | 9 | 17 | 9
O=C(Cc1ccc(Cl)cc1)Nc1ccccc1CO | 4160 | 7 | / | -0.3 | -9 | / | /

The list itself, previewed entries included:
SMILES | Bead autofluor | ugtP null kill | BJeLR viability | Sa RN4220 lethal | PrP UTR inh | Mtb hypoxia rep | Mtb hypoxia rep growth
CCOC(=O)C1=C(O)C(=O)N(c2ccc(S(N)(=O)=O)cc2)C1c1cccc([N+](=O)[O-])c1 (stereo unspecified) | 4802 | 7 | -7 | 3.2 | 9 | 17 | 9
O=C(Cc1ccc(Cl)cc1)Nc1ccccc1CO | 4160 | 7 | / | -0.3 | -9 | / | /
O=C(O)CP(=O)(O)O | 5770 | 5 | 2 | 7.8 | 3 | 10 | 6
CCCCN1C(=O)C(=O)NCC1CCCCN (stereo unspecified) | / | 6 | / | 7.0 | / | 15 | 11
CC(NC(=O)C(=O)NN=Cc1cccc([N+](=O)[O-])c1)c1ccccc1 (stereo unspecified) | / | -1 | / | -0.4 | / | -1 | -1
COC(=O)c1c(N2C(=O)[C@H]3[C@@H](C2=O)[C@]2(C(=O)Nc4c(C)cccc42)N2CCC[C@@H]32)sc(C)c1C | 2675 | -12 | 16 | 5.3 | 1 | 18 | 5
S=C(NCCc1ccccc1)N1CCN(Cc2ccccc2)CC1 | 2280 | 6 | -5 | -0.4 | -25 | 4 | 5
N#CCC(=O)NN=Cc1cn(Cc2ccccc2C#N)c2ccccc12 | / | 4 | / | 4.3 | / | 16 | -1
CCC(Sc1nnnn1-c1ccccc1)C(=O)Nc1nc2ccccc2s1 (stereo unspecified) | 3174 | -12 | -3 | -6.6 | -13 | 7 | 11
CC1CCc2[nH]c3ccc(C(=O)Nc4ccc(C(=O)N(C)C)cc4)cc3c2C1 (stereo unspecified) | 5503 | 0 | 0 | 4.2 | -28 | 3 | 7
Cc1ccc(S(=O)(=O)c2nc(S(=O)(=O)c3ccccc3)sc2N2CCN(CCO)CC2)cc1 | 5479 | 5 | 6 | 5.4 | -1 | 12 | 13
CCOC(=O)C(C)Sc1ncnc2c1nnn2-c1ccc(F)cc1 (stereo unspecified) | 2113 | 11 | 9 | -9.8 | -12 | 14 | 12
O=C(NC1CCC1)C1CCC(=O)N(Cc2ccccc2F)C1 (stereo unspecified) | 5126 | 0 | 5 | 0.8 | -11 | 6 | 4
Cc1cc(C(=O)COC(=O)Cn2cnc3c2c(=O)n(C)c(=O)n3C)c(C)n1C | 9913 | 3 | 1 | 3.8 | -20 | 4 | -1
CC(=O)Nc1ccc2sccc2c1 | 4463 | 8 | 23 | 2.9 | -9 | 3 | 1
O=c1[nH]nc(SCc2ccccc2Cl)n1-c1ccc2c(c1)OCCO2 | 3246 | 0 | -10 | 1.4 | -39 | 0 | 2
Cc1ccc2c(Cl)c(C(=O)Nc3cc(C)on3)sc2c1 | 10395 | 1 | 1 | 2.9 | -121 | 10 | 12
COc1ccc(-c2cc(C(=O)Nc3nc4c(C)cccc4s3)c3ccccc3n2)cc1OC | 10060 | 20 | 5 | -9.0 | -51 | -16 | 0
O=C(CCn1nc(-c2ccc(Cl)cc2)c2ccccc2c1=O)NCCN1CCOCC1 | 6252 | 2 | -10 | 0.9 | -27 | 16 | 1
C/C(Cn1nnc2ccccc21)=N\OC(=O)c1cc(F)c(F)cc1Cl | 2111 | / | -2 | / | -15 | / | /
CCN(C(=O)Cc1c(C(=O)O)n(C)c2ccccc12)c1cccc(C)c1 | 4399 | 1 | 0 | 9.3 | -16 | 18 | 2
O=C(Nc1ccc(Oc2ncnc3cc(Cl)ccc23)nc1)c1ccc(F)cc1 | / | -6 | 3 | 1.2 | / | 3 | 3
O=C(CN(Cc1ccco1)C(=O)c1cc(=O)[nH]c2ccccc12)Nc1ccccc1Br | 2922 | -8 | -1 | -7.6 | -8 | 3 | 4
CCOC(=O)C1(Cc2ccccc2Cl)CCN(S(=O)(=O)N(C)C)CC1 | 4662 | 11 | -2 | 10 | -20 | 1 | 8
NC(=O)c1ccc(-c2noc(-c3ccccc3F)n2)cc1 | 3907 | -2 | / | -4.0 | -21 | / | /
CCN(CC)S(=O)(=O)c1ccc2[nH]cc(C(=O)NCCN3CCCCCC3)c(=O)c2c1 | 12227 | -3 | 7 | -0.7 | 11 | -13 | 2
NNC(=O)c1cccn(Cc2ccc(Cl)cc2Cl)c1=O | 3096 | -4 | 7 | -0.9 | -2 | 7 | 6
CC(=O)Nc1ccc(S(=O)(=O)Oc2ccccc2N2C(=O)C3C4CCC(C4)C3C2=O)cc1 (stereo unspecified) | 4507 | 6 | -4 | 2.5 | -10 | 2 | 0
Cc1noc(C)c1C(=O)N1CCN(Cc2ccccc2)CC1 | 5001 | -1 | -3 | 0.2 | -9 | / | /
O=C(Nc1cccc(Cl)c1)c1cc(F)cc2c1OCOC2 | 3356 | -3 | -7 | 3.4 | -2 | 11 | 2
CCOc1ccc(N2C(=O)CC(N(CCc3ccc(OC)c(OC)c3)C(=S)Nc3ccccc3)C2=O)cc1 (stereo unspecified) | 2055 | 12 | 1 | 3.4 | 6 | 6 | 10
CCN(CC)CCn1c2c(c(SCC(=O)Nc3cc(C)on3)nc1=O)CCCC2 | 6572 | 1 | 14 | 1.2 | -9 | 2 | 1
Cn1ncc(Br)c1C(=O)OCC(=O)Nc1nc(-c2ccccc2)cs1 | 3427 | 3 | -2 | 4.1 | -22 | 8 | 4
COCCN(C(=O)COC(=O)c1c(NC(C)=O)sc(C)c1C)c1c(N)n(Cc2ccccc2)c(=O)[nH]c1=O | 5477 | 1 | -1 | -1.2 | -12 | -7 | -10
CCC(C)[C@H](NS(=O)(=O)c1ccc(C)cc1)C(=O)N1CCC(C(=O)N[C@H](C(=O)O)c2ccccc2)CC1 (stereo partly specified) | 5211 | -7 | -4 | 2.4 | -27 | / | /
Cc1nc(N2CCOCC2)nc(N2CCCC2)c1[N+](=O)[O-] | 2398 | 3 | -12 | 4.5 | -14 | 3 | 1
COCCNC(=O)c1cccc2c1-c1ccccc1C2=O | 3756 | 3 | -15 | 3.7 | -23 | 16 | 9
COC(=O)C1=C(c2ccc(OC(F)(F)F)cc2)CC2CCC1N2C(=O)NCc1ccc(F)cc1 (stereo unspecified) | / | -5 | / | -5.6 | / | 5 | 13
Cc1nn(-c2ccc(C(=O)O)cc2)c2c1C(=O)CC(C)(C)C2 | 5349 | -2 | 3 | 1.5 | -17 | 11 | -5
CCC(Sc1nnnn1-c1ccccc1)C(=O)NC(C)c1ccccc1 (stereo unspecified) | 11204 | 3 | 3 | 2.8 | -30 | 5 | 5

In another format: 11 of the compounds above
SMILES,Bead autofluor,ugtP null kill,BJeLR viability,Sa RN4220 lethal,PrP UTR inh,Mtb hypoxia rep,Mtb hypoxia rep growth
O=C(Nc1cccc(Cl)c1)c1cc(F)cc2c1OCOC2,3356,-3,-7,3.4,-2,11,2
CCOc1ccc(N2C(=O)CC(N(CCc3ccc(OC)c(OC)c3)C(=S)Nc3ccccc3)C2=O)cc1 (stereo unspecified),2055,12,1,3.4,6,6,10
CCN(CC)CCn1c2c(c(SCC(=O)Nc3cc(C)on3)nc1=O)CCCC2,6572,1,14,1.2,-9,2,1
Cn1ncc(Br)c1C(=O)OCC(=O)Nc1nc(-c2ccccc2)cs1,3427,3,-2,4.1,-22,8,4
COCCN(C(=O)COC(=O)c1c(NC(C)=O)sc(C)c1C)c1c(N)n(Cc2ccccc2)c(=O)[nH]c1=O,5477,1,-1,-1.2,-12,-7,-10
CCC(C)[C@H](NS(=O)(=O)c1ccc(C)cc1)C(=O)N1CCC(C(=O)N[C@H](C(=O)O)c2ccccc2)CC1 (stereo partly specified),5211,-7,-4,2.4,-27,/,/
Cc1nc(N2CCOCC2)nc(N2CCCC2)c1[N+](=O)[O-],2398,3,-12,4.5,-14,3,1
COCCNC(=O)c1cccc2c1-c1ccccc1C2=O,3756,3,-15,3.7,-23,16,9
COC(=O)C1=C(c2ccc(OC(F)(F)F)cc2)CC2CCC1N2C(=O)NCc1ccc(F)cc1 (stereo unspecified),/,-5,/,-5.6,/,5,13
Cc1nn(-c2ccc(C(=O)O)cc2)c2c1C(=O)CC(C)(C)C2,5349,-2,3,1.5,-17,11,-5
CCC(Sc1nnnn1-c1ccccc1)C(=O)NC(C)c1ccccc1 (stereo unspecified),11204,3,3,2.8,-30,5,5

(continued)
SMILES | Bead autofluor | ugtP null kill | BJeLR viability | Sa RN4220 lethal | PrP UTR inh | Mtb hypoxia rep | Mtb hypoxia rep growth
CC(C)(C)c1ccc(OCC(=O)Nc2ccc(C(=O)Nc3ccccc3C(=O)O)cc2)cc1 | 5967 | -17 | 6 | -7.1 | -17 | 1 | 10
Cc1ccccc1C(=O)Nc1ccnn1C1CCN(CCCc2ccccc2)CC1 | 6063 | -2 | -1 | 0.9 | -9 | -4 | 7
CCN(CC)S(=O)(=O)c1cccc(NC(=O)c2ccc(C#N)cc2)c1 | 4217 | 6 | 22 | 7.1 | -9 | 13 | 2
Cc1cc(-c2nnc(CCC(=O)N3CCN(Cc4cccnc4)CC3)o2)c(C)o1 | 2047 | -4 | -2 | 3.2 | -17 | 6 | 14
COc1ccc(-c2csc(N3CCC(c4ccccc4)C3)n2)cc1 (stereo unspecified) | 4294 | -1 | -3 | 13 | -54 | 3 | 0
Cc1cc(NC(=O)c2ccc3nc(-c4ccccc4)c(-c4ccccc4)nc3c2)no1 | 10657 | 18 | 1 | 0.6 | -1 | 4 | 0
Nc1nc(CCl)nc(Nc2cccc3ccccc23)n1 | / | 8 | 125* | 5.0 | / | / | /
O=C(CSc1nc2c(c(=O)[nH]1)CN(Cc1ccc(F)cc1)CC2)Nc1ccc(F)cc1 | 2144 | 6 | 0 | 3.7 | -25 | 11 | -7
C#CCOCCOCCOCCNc1nc(N2CCN(C(=O)C(C(C)CC)n3cc(C(N)COC(=O)C(F)(F)F)nn3)CC2)nc(N2CCN(C(=O)C(C(C)CC)n3cc(C(N)CC(C)C)nn3)CC2)n1 (stereo unspecified) | / | -11 | / | 1.6 | / | 19 | 15
COc1ccc(-c2noc(-c3ccccc3F)n2)cc1 | 3944 | 13 | 0 | -1.6 | -93 | -1 | 3
Cc1cccc(OCc2nnc(SCc3cc(=O)n4cc(Br)ccc4n3)o2)c1 | 2595 | -17 | -8 | -13 | -16 | 2 | -2
O=C(Cc1cccs1)Nc1nnc(SCC(=O)N2CCCCC2)s1 | 3826 | -8 | -2 | 5.4 | -13 | -81 | -13
CCOC(=O)c1c(-c2ccccc2)oc2ccc(O)c(CN3CCN(C)CC3)c12 | 2306 | -10 | -2 | -1.4 | -5 | 17 | 15
Cc1ccc(Cl)cc1N1CCN(S(=O)(=O)c2c(C)nc3scc(C)n3c2=O)CC1 | 3866 | 3 | 0 | -0.9 | -18 | 10 | 11
Cc1cccc(N2C(=O)N3[C@@H]4c5ccccc5OC[C@@H]4[C@@H](c4ccccc4)[C@]3(C)C2=O)c1 | 3474 | / | -2 | / | -11 | / | /
O=C(NCCOCc1ccccc1)C(c1ccccc1)c1ccccc1 | 4026 | -4 | -15 | 6.8 | -6 | 0 | 11
O=C(NNC(=O)c1cc(-c2ccncc2)nc2ccccc12)c1ccccc1F | 7802 | -5 | / | 1.8 | -22 | 0 | 6
COc1ccc(C(=O)Nc2ccc3[nH]c(-c4cccc(OC)c4)cc(=O)c3c2)cc1 | 3018 | 3 | 23 | -0.9 | 47 | 5 | 2
O=C(NN=Cc1sc(N2CCOCC2)nc1-c1ccccc1)c1ccccc1F | / | -9 | / | 1.2 | / | -11 | -16
O=C(NCC1CCCCC1)c1ccc(F)cc1Cl | 3259 | 13 | -4 | 3.2 | -46 | / | /
CCCCN(C)C(=O)c1ccc(CS(=O)(=O)c2ccccc2C)o1 | 5397 | 11 | 0 | 5.4 | -9 | / | /
CSc1nc2ccccc2cc1/C=C(\C#N)c1cccc(Cl)c1 | 2745 | 29 | -2 | -11 | -26 | / | /
O=C(CCCCCN1C(=O)c2ccccc2C1=O)Nc1ccc(S(=O)(=O)N2CCCCC2)cc1 | 21502* | -3 | -1 | 3.1 | 5 | 7 | 6
O=C(CSc1ccc(-c2ccco2)nn1)N1CCCCCC1 | 4622 | -2 | -1 | 0.7 | -32 | 4 | 13
O=C(O[C@@H]1OC2COC(=O)c3cc(O)c(O)c(O)c3-c3c(cc(O)c(O)c3O)C(=O)O[C@@H]([C@H]1O)[C@@H]2O)c1cc(O)c(O)c(O)c1 | 2817 | / | 3 | / | -15 | / | /
